Source: PubChem (National Center for Advancing Translational Sciences (NCATS))
StopGo reporter – FMDV 2A StopGo reporter, luciferase signal; human cells with a luciferase reporter of 2A StopGo recoding; control for the full effect not named in the record; Potency, µM (highest dose often 57.9 µM), for inactives: at the highest dose signal change, negative = less light; actives 1.2% (n = 410,000); active = well fitted falling curve with a large enough effect; inconclusive = small, poorly fitted or top-dose-only effect; inactive = no such curve, though single readings can be large or run the other way; tested in HEK293T cells; also: % is scaled to controls: 0 for no effect and ±100 for the full control effect; nearly all actives have a fitted effect of over 45% in size; luciferase light after 4 h
NS1 inh – inhibitors of influenza NS1 protein function | AID 2326 | Potency, µM (doses to about 46.1 µM), for inactives: at the top dose activity, positive = more growth | S. cerevisiae slowed by influenza A NS1, growth recovery by OD600 | actives 0.4% (n = 270,000); active means well fitted rising curve with a large enough effect; inconclusive means small, poorly fitted or top-dose-only effect; inactive means no such curve, though single readings can be large or run the other way; also: nearly all actives have a fitted effect of over 50% in size
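S. cerevisiae expressing influenza A NS1, grown in glucose, washed, then diluted 1:100 into pH 6.0 -URA galactose medium with 23 nl compound. Growth recovery read as OD600; NS1-free strain serves as control.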
Cruzain inh Det – inhibitors of Trypanosoma cruzi cruzain with detergent | P25779 | purified cruzain, Z-FR-AMC fluorescence, 0.01% Triton | Potency, µM, for inactives: max response, negative = inhibition, most hits filed as inhibitors | actives 0.43% (n = 200,000) | AID 1478;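 also: plate controls were neutral wells for no effect and buffer without enzyme for full effect; nearly all actives have a fitted effect of over 40% in size; top concentration of the series not given in the record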
Target sequence (P25779 123-467 limits assumed): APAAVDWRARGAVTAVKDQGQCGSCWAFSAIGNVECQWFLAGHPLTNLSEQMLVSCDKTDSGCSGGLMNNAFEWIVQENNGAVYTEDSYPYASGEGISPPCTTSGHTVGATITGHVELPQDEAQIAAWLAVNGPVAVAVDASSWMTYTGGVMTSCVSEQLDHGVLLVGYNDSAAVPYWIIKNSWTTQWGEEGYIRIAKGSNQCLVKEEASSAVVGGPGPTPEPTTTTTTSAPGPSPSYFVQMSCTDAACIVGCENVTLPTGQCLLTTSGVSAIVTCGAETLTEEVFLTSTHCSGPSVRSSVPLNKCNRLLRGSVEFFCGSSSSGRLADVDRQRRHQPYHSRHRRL
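Enzyme 1.5 nM, Z-FR-AMC 2 uM, NaOAc 100 mM pH 5.5, DTT 5 mM, Triton X-100 0.01%; 15 min RT compound preincubation; kinetic ex360/em450, 60 s delta.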
Cruzain inh noDet – inhibitors of Trypanosoma cruzi cruzain without detergent | purified cruzain, Z-FR-AMC fluorescence, no detergent | Potency, µM, for inactives: max response, negative = inhibition, usual class: inhibitors | actives 2.3% (n = 200,000);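 also: plate controls were enzyme without inhibitor for no effect and buffer without enzyme for full effect; nearly all actives have a fitted effect of over 40% in size; top concentration of the series not given in the record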
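Detergent-free condition (0.00005% Triton X-100) in acetate buffer pH 5.5 with DTT. 1.5 nM enzyme and compound were pre-mixed 15 min, then 2 uM Z-FR-AMC substrate added; reaction progress from fluorescence change between first and third reads (60 s).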
Lassa entry inh – blocks Lassa virus binding to or entry into cells | Lassa virus pseudotype entry inhibition, cell reporter; control for the full effect not named in the record | Potency, µM (doses to about 37.9 µM), without a hit: top-dose activity change, negative = inhibition, most hits filed as inhibitors | actives 1.2% (n = 300,000); active means well fitted inhibition curve with a large enough effect; inconclusive means small, poorly fitted or top-dose-only effect, or effect the other way; inactive means flat fitted curve, though single readings scatter; tested in HEK293 cells; also: % is scaled to controls: 0 for no effect and ±100 for the full control effect; nearly all actives have a fitted effect of over 50% in size; luciferase read-out
MARV entry inh – inhibitors of Marburg virus binding or cell entry; Marburg virus pseudotyped entry inhibition, cell reporter; control for the full effect not named in the record; about a third of the inactives were read at about 46 µM; Potency, µM (highest dose often 37.8 µM), without a hit: at the highest dose activity change, negative = inhibition, usual class: inhibitors; actives 1.8% (n = 300,000); AID 540276; active = well fitted inhibition curve with a large enough effect; inconclusive = small, poorly fitted or top-dose-only effect, or effect the other way; inactive = flat fitted curve, though single readings scatter; tested in HEK293 cells; about a fifth of its hits are not listed in these tables; also: % is scaled to controls: 0 for no effect and ±100 for the full control effect; luciferase read-out
RE007 growth inh – less growth of the S. pombe RE007 Vpr strain; S. pombe RE007 Vpr strain, BacTiter-Glo ATP luminescence, 24 h; control for the full effect not named in the record; Potency, µM (highest dose often 92.2 µM), without a hit: at the top dose activity change, negative = less growth; actives 0.21% (n = 360,000); AID 651644; active = well fitted falling curve with a large enough effect; inconclusive = small, poorly fitted or top-dose-only effect; inactive = no such curve, though single readings can be large or run the other way;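 also: % is scaled to controls: 0 for no effect and ±100 for the full control effect; nearly all actives have a fitted effect of over 50% in size; the assay follows cell death caused by Vpr and the record does not say whether a fall means rescue or toxicity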
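Fission yeast strain RE007, carrying one chromosomally integrated HIV-1 vpr copy, was seeded at OD 0.01 in PMG+AL medium with 23 nL pinned compound. After 24 h at 30 °C and 99% humidity, viability was read by BacTiter-Glo luminescence.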
SARS PLP yeast – blocks SARS-CoV papain-like protease in a yeast assay; actives 0.19% (n = 330,000); Potency, µM (top dose mostly 32.9 µM), for inactives: at the highest dose activity, positive = growth rescue; S. cerevisiae expressing SARS-CoV PLpro, growth rescue; control for the full effect not named in the record; active means well fitted rising curve with a large enough effect; inconclusive means small, poorly fitted or top-dose-only effect; inactive means no such curve, though single readings can be large or run the other way; also: 0% is about no effect; nearly all actives have a fitted effect of over 55% in size; growth read by luminescence after 48 h
The depositor's hits bear a star; ? = inconclusive; . = not tested or not shown; & = joins results of further samples; [ ] = another dose, or the depositor's remark. Unless noted, calls follow the shape of the dose curve; as a rule, active = well fitted curve in the direction sought with a large enough effect; inconclusive = small, poorly fitted or top-dose-only effect, or another doubt; inactive = no such curve, though single readings can be large; an effect the other way counts as inactive or inconclusive. Potency is read from the fitted curve at half-maximal effect. No enrichment for hits; any-hit rate near 4.6%.

SMILES | StopGo reporter | NS1 inh | Cruzain inh Det | Cruzain inh noDet | Lassa entry inh | MARV entry inh | RE007 growth inh | SARS PLP yeast
Cc1cc(NS(=O)(=O)c2cn(C)c(C)n2)ccc1Br | -3% | . | -0.5% | 0% | 31%[46.1 µM] | . | . | .
CNC(=O)CCc1ccc(OC)cc1 | -4% | 3% | . | . | . | . | 28% | -1%
O=C1c2ccccc2C(=O)N1CCCC(=O)N1CCc2ccccc21 | 26% | 4% | 3.6% | 0% | 6% | 2% | 3% | 3%
COc1cccc(CNC(=O)CCNC(=O)c2ccco2)c1 | -27% | . | . | . | -14% | 2% | 2% | 2%
CCOC(=O)N1CCN(c2nc3c(c(=O)[nH]c(=O)n3C)n2Cc2ccccc2Cl)CC1 | . | 5% | 6.0% | 0% | . | 0% | . | 1%
CC(=O)Nc1ccc(S(=O)(=O)NNC(=O)c2cccc(Br)c2)cc1 | 1% | . | . | . | 14%[46.1 µM] | -19%[46.1 µM] | 6% | 3%
CCS(=O)(=O)N1CCc2cc(C(=O)Nc3cccc(Cl)c3C)ccc21 | 2% | . | -3.4% | 9% | 22%[46.1 µM] | 6%[46.1 µM] | . | .
Cc1onc(-c2ccccc2)c1C(=O)c1c[nH]c(C(=O)NCc2ccccn2)c1 | ? | . | . | . | ? | 28%[46.1 µM] | 11% | -3%
O=C(NCC1CCCO1)C(c1cccs1)N(C(=O)c1ccc(-c2ccccc2)[nH]1)C1CCCC1 (stereo not drawn) | 0% | 24% | -7.2% | ? | ? | ? | 22% | 16%
COC(=O)CN1C(c2ccccc2)=Nc2ccc(Cl)cc2C1c1ccccc1 (stereo not drawn) | ? | -54% | -1.1% | 6% | -8% | ? | 13%[3.69 µM] | -6%
CC(=O)N/C(=C/c1ccc2c(c1)OCO2)C(=O)O | 9% | 3% | . | . | 0% | ? | 18% | 0%
CCCCc1cc(=O)oc2cc(C)cc(OCC(=O)NC(Cc3ccc(Cl)cc3)C(=O)O)c12 (stereo not drawn) | -22% | 23% | . | . | . | . | -5% | -3%
COc1ccc(C(C)=O)cc1COC(=O)CSCC(=O)Nc1ccc(C)cc1 | 1% | . | . | . | -6% | 23% | -19% | -3%
CCOc1ccccc1C(=O)NCC(=O)NCC(c1ccc(OC)cc1)N1CCOCC1 (stereo not drawn) | -19% | . | . | . | 0% | 2%[46.1 µM] | -9% | 1%
COc1ccccc1-c1ccc(C(=O)O)o1 | 19% | -1% | 0.3%&-1.4% | 12%&-14% | -5% | 11%&11% | ? | 1%
C/C(=N\NC(=O)c1cccc2ccccc12)c1cccnc1 | -2% | -4% | . | . | 0%[46.1 µM] | -17%[46.1 µM] | -19% | 3%
C=CCNC(=S)N(C1CCCCC1)C1CCCCC1 | -14% | -4% | . | . | . | 1%[46.1 µM] | 5% | 0%
Cc1cc2c(s1)c1cnn(CC(=O)NCCc3ccccc3)c(=O)c1n2C | 0% | 10% | 0.6% | 2% | -6% | ? | -1% | 2%
CCOC(=O)N1CCN(S(=O)(=O)c2ccc3c(c2)CC(C)N3C(C)=O)CC1 (stereo not drawn) | -24% | -6% | . | . | . | . | 7% | 1%
Cc1nnc(N2C(=O)c3oc4ccccc4c(=O)c3C2c2ccc(F)cc2)s1 (stereo not drawn) | -6% | . | -1.1% | 8% | -5%[46.1 µM] | 5%[46.1 µM] | . | .
CCCCOCCCn1c(N)c(C(=O)OCCOC)c2nc3ccccc3nc21 | ? | -22% | -0.6% | ? | -10% | ? | 0% | -8%
CC(=O)c1c(O)cc(=O)n(-c2ccccc2)c1-c1ccc(Cl)cc1 | -15% | 23% | -1.7% | ? | 3% | 8% | 22% | 14%
COc1ccc(C(=O)NC(=S)N2C[C@H]3C[C@H](C2)c2cccc(=O)n2C3)cc1OC | -17% | 8% | . | . | . | . | 8% | 3%
Cc1ccc(S(=O)(=O)N2CCC(C(=O)OC(C)C(=O)NC(N)=O)CC2)cc1C (stereo not drawn) | 2% | -67% | . | . | . | . | 8% | 0%
O=C1CCCN1CC(O)CS(=O)(=O)Cc1ccccc1Cl (stereo not drawn) | -6% | 6% | . | . | 14%[46.1 µM] | ? | 12% | 2%

(further entries)
SMILES | StopGo reporter | NS1 inh | Cruzain inh Det | Cruzain inh noDet | Lassa entry inh | MARV entry inh | RE007 growth inh | SARS PLP yeast
Clc1ccc(-c2nnc(NCc3ccccc3)c3ccccc23)cc1 | ? | 8% | -11% | 10% | ? | ? | -9% | -95%
Cc1ccc(-n2ncc3c(NCCCN4CCOCC4)ncnc32)cc1C | -7% | . | 0.1% | 1% | 29%[46.1 µM] | . | . | .
CCOc1cc(NS(=O)(=O)c2ccc(Cl)cc2)c(OCC)cc1NC(=O)CC(C)C | -20% | -9% | -8.2% | -3% | 6% | -22% | -2% | -1%
Cc1cccc(N2CCN(c3nc4ccc(C)cc4n4cnnc34)CC2C)c1 (stereo not drawn) | -28% | . | -2.9% | -3% | . | 3%[46.1 µM] | . | .
COC(=O)CCN(C(=O)c1ccc(N2CCCCC2)c([N+](=O)[O-])c1)c1ccccn1 | 30% | 3% | . | . | 14%[46.1 µM] | ? | 6% | -1%
Cc1cccc(N2CCN(C(=O)c3cn(C)c4ccc(S(=O)(=O)N(C)C)cc4c3=O)CC2C)c1 (stereo not drawn) | 11% | . | -5.9% | ? | 1%[46.1 µM] | -22%[46.1 µM] | . | .
Cc1onc(C(=O)NCc2ccccn2)c1[N+](=O)[O-] | -7% | . | . | . | 3% | 11%[46.1 µM] | 12% | 0%
Cc1cc(C)cc(NCc2cc3c(cc2[N+](=O)[O-])OCO3)c1 | . | -16% | -1.4% | -2% | 4% | -11% | 2% | -18%
COC(=O)CSc1nnc(C)n1-c1cccc(OC)c1 | 17% | -6% | 5.2% | -9% | 2% | 17% | 15% | -1%
COc1ccc2cc(/C=C3\SC(=S)NC3=O)c(N3CCOCC3)nc2c1 | 28µM* | 7% | -9.9% | ? | ? | 11µM* | 2% | -3%
Cc1ccccc1C(=O)N/N=C1/SCC(=O)N1Cc1ccc2c(c1)OCO2 | ? | 19% | 1.2% | 8% | -3% | ? | 6% | 1%
COc1ccc(N2CCN(C(=O)C3CCN(S(=O)(=O)Cc4ccccc4)CC3)CC2)cc1 | 0% | . | -1.9% | 1% | 5%[46.1 µM] | 11%[46.1 µM] | . | .
CCOC(=O)C1(c2ccccc2)CCN(CC(O)c2ccc(NC(C)=O)cc2)CC1 (stereo not drawn) | 8% | . | . | . | 24%[46.1 µM] | ? | 0% | .
COc1ccc(-n2ccnc2CN2CCN(C3CCCC3)C(CCO)C2)cc1 (stereo not drawn) | -1% | 4% | . | . | . | . | -2% | 0%
COc1ccc(C)cc1NC(=O)C(Sc1nncn1C)c1ccccc1 (stereo not drawn) | -4% | . | . | . | 16%[46.1 µM] | 10%[46.1 µM] | -3% | -1%
CC(Cc1c[nH]c2ccccc12)NC(N)=O (stereo not drawn) | 19% | . | . | . | 3% | 5%[46.1 µM] | -5% | -4%
Cc1ccc(CNCc2c(C(=O)O)n(Cc3ccccc3C)c3cc(C)ccc23)cc1 | ? | . | -3.5% | 2% | 9%[46.1 µM] | . | . | .
COc1ccc(-c2nnc(SCC(=O)Nc3ccc(C)c(Cl)c3)nc2-c2ccc(OC)c(OC)c2)cc1OC | -22% | . | -1.3% | -18% | -16%[46.1 µM] | . | . | .
Cc1cc(C)cc(N2CC34C=CC(O3)C(C(=O)OCC(=O)NCc3ccco3)C4C2=O)c1 (stereo not drawn) | 16% | -6% | 4.0% | 21% | -2% | ? | 25% | 1%
Cc1cc(C)c2c(=O)[nH]c(SCC(=O)Nc3cccc(S(=O)(=O)N(C)C)c3)nc2n1 | -13% | . | . | . | -7% | 3% | 4% | -18%
O=C(Cn1cnc2c(cnn2-c2ccc(Cl)cc2)c1=O)NCCc1ccccc1 | 0% | 6% | -1.3% | 25µM* | 2% | -1% | 21% | 16%
Cc1cc(C(=O)CSc2nnc(-c3cccs3)o2)c(C)n1-c1ccccc1 | 11µM* | 8% | 2.9% | 25µM* | -18% | ? | 5% | -5%
CC(NC(=O)c1cccc(Cn2cc([N+](=O)[O-])cn2)c1)c1ccc(C(C)(C)C)cc1 (stereo not drawn) | -8% | 6% | -4.0% | 7% | -23% | ? | 8% | -2%
CCn1c(=S)ccc2ccc(OC)cc21 | 2% | 0% | 3.4% | -5% | 7% | 1% | -2% | 1%
CC(C)CN(C)C(=O)CCc1nnc(Cc2ccc(-c3ccccc3)cc2)o1 | 2% | -6% | . | . | . | . | 8% | 0%
CC(C)=C1C2CCC1C1C(=O)N(c3nc(-c4ccc(F)cc4)c(C)s3)C(=O)C21 (stereo not drawn) | -23% | -6% | 0.1% | -1% | -6% | -22%[46.1 µM] | -34% | -18%
CCc1ccccc1NC(=O)Nc1ccon1 | -23% | -7% | . | . | . | . | 16% | -2%
CCCCOc1ccc(C(C)NC(=O)C2CCCN(S(=O)(=O)CCC)C2)cc1 (stereo not drawn) | -9% | 2% | -0.5% | 4% | ? | ? | -17% | 16%

An excerpt from above in order of count of non-hydrogen atoms, low to high.
SMILES | StopGo reporter | NS1 inh | Cruzain inh Det | Cruzain inh noDet | Lassa entry inh | MARV entry inh | RE007 growth inh | SARS PLP yeast
COC(=O)CSc1nnc(C)n1-c1cccc(OC)c1 | 17% | -6% | 5.2% | -9% | 2% | 17% | 15% | -1%
Cc1cc(C)cc(NCc2cc3c(cc2[N+](=O)[O-])OCO3)c1 | . | -16% | -1.4% | -2% | 4% | -11% | 2% | -18%
COc1ccc(-n2ccnc2CN2CCN(C3CCCC3)C(CCO)C2)cc1 (stereo not drawn) | -1% | 4% | . | . | . | . | -2% | 0%
CC(NC(=O)c1cccc(Cn2cc([N+](=O)[O-])cn2)c1)c1ccc(C(C)(C)C)cc1 (stereo not drawn) | -8% | 6% | -4.0% | 7% | -23% | ? | 8% | -2%
Cc1cccc(N2CCN(C(=O)c3cn(C)c4ccc(S(=O)(=O)N(C)C)cc4c3=O)CC2C)c1 (stereo not drawn) | 11% | . | -5.9% | ? | 1%[46.1 µM] | -22%[46.1 µM] | . | .
